# Compound activity: PubChem, ICCB-Longwood Screening Facility, Harvard Medical School
# GIV-Gai inh – GIV-Galpha-i interaction inhibition; P08753; Galpha-i3/FITC-GIV peptide fluorescence polarization, 90 min; hits give low values; scaled: aluminum fluoride 0%, vehicle 100%; percent of control (FP), % (no concentration beside the values); hit rate 0.42% among 210,000; AID 1224905;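 active = replicate mean at 85% of control or lower, very high polarization wells dropped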;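 note: wells of about 15 µL received 100 nL stock; the first replicate is given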
# Target sequence (P08753 whole entry, looked up): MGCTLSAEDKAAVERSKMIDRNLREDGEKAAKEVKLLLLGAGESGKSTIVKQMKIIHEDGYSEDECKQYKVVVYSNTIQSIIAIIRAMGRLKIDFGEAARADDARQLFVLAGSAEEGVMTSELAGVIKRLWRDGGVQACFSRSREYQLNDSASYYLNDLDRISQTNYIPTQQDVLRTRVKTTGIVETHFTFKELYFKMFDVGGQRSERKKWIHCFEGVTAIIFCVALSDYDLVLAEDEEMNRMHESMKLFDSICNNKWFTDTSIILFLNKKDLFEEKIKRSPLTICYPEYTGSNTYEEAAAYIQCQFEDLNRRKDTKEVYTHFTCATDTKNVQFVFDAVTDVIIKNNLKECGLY
# * = called active by the depositor; & = joins results of further samples. These rows are one share of the data (hit frequency here may not be typical).
structure,GIV-Gai inh
O=C(Nc1cc(C(=O)N2CC=C(c3ccccc3)CC2)ccc1N1CC2CC(C1)c1cccc(=O)n1C2)c1cccs1 (configuration not stated),107
O=C(Nc1ccc(N2CCN(c3ccccc3Cl)CC2)c(C(=O)O)c1)c1ccc(F)cc1,109
CCc1c(C(C)=O)oc2ccc3c(C)cc(=O)oc3c12,101
COc1ccc2c(c1)c(CN1CCC(C(=O)NCCN3CCCC3)CC1)cn2C,106
O=C(Nc1nnc(COc2ccc(Cl)cc2)s1)c1cc(S(=O)(=O)N2CCOCC2)ccc1Cl,103
Cc1ccc(Cn2nc3c(S(=O)(=O)N4CCN(c5ccc(F)cc5)CC4)cccn3c2=O)c(C)c1,102
CCCCN(CC)S(=O)(=O)c1cc(-c2nnc(C)o2)co1,101
CCCCCCCCOc1ccc(C=C2c3cc([N+](=O)[O-])cc([N+](=O)[O-])c3-c3c2cc([N+](=O)[O-])cc3[N+](=O)[O-])cc1,117
CCCCNC(=O)c1ccc2c(c1)CCCN2C(=O)c1ccccc1,99
Cc1cc2nc3s/c(=C\c4ccc(N(C)C)c(Br)c4)c(=O)n3c2cc1C,105
O=C(Nc1cnc(N2CCN(c3ccc(F)cc3)CC2)c(C(=O)O)c1)c1ccccc1Cl,112
CCOC(=O)c1[nH]c(C)c(CN(Cc2ccc(Cl)cc2)C(=O)c2cc3ccccc3[nH]2)c1C,99
CCN(CC)c1ccc(N2C(=O)/C(=C/c3ccc(OC)c(Br)c3)C=C2c2ccccc2)cc1,101
COC(=O)c1ccc(C2Oc3c(OC)cccc3C3CC(c4cccc(OC)c4)=NN32)cc1 (configuration not stated),107
CCOc1ccc(C2C(N3C(=O)c4ccccc4C3=O)C(=O)N2c2ccc(OC)c(Cl)c2)cc1 (configuration not stated),106
O=C(COc1ncnc2onc(-c3ccccc3)c12)NCc1cccc(Br)c1,108
COc1ccccc1N1CCN(c2ncnc3sc(C(=O)NCc4ccccn4)c(C)c23)CC1,98
CN1CCN(c2nc3c(=O)[nH]c(N)nc3n2C2OC(CO)C(O)C2O)CC1 (configuration not stated),112
O=C(Nc1ccccc1Cl)N1CCN(Cc2cc(=O)n3nc(-c4ccccc4F)sc3n2)CC1,102
CCOCCCn1c(SCC)nc2c(-c3ccccc3)cn(C)c2c1=O,106
CN1CCCN(c2ncnc3c2CCC3)CC1,111
Cc1ccc(Nc2c(C(=O)NC3CCCCC3)cnc3c2c(C)nn3C)cc1,100
Cc1ccc(C)c(N2CCN(C(=O)c3c[nH]c4ccc(S(=O)(=O)N5CCOCC5)cc4c3=O)CC2)c1,107
COc1ccc(C2(C(=O)N3CCCC3)CCOCC2)cc1OC,113
Cc1ccc(C)c(C2CC(=O)Nc3c2c(C)nn3-c2ccc3nnc(C)n3n2)c1 (configuration not stated),98
COc1ccc(CCNS(=O)(=O)c2cc(-c3cc(C)no3)cs2)cc1OC,105
Cc1ccc(-n2sc3c(c2=S)-c2cc(Br)ccc2NC3(C)C)cc1,104
CC(C)OC(=O)c1nnn(-c2nonc2N)c1CN1CCN(c2ccc(F)cc2)CC1,101
Brc1ccc2c(c1)c1nc3ccccc3nc1n2CCc1ccccc1,106
Cc1ccc(/C(O)=C2/C(=O)C(=O)N(c3ccc(O)cc3)C2c2ccccc2)cc1 (configuration not stated),108
Cc1cccc(N2CCN(S(=O)(=O)c3cc(-c4cc(C(F)(F)F)[nH]n4)sc3C)CC2)c1C,94
Cc1c(C(=O)NC2CCCCC2)sc2nc(SCc3cccc(Cl)c3)n(CCc3ccccc3)c(=O)c12,105
O=[N+]([O-])c1cccc(C2=Nn3cnnc3SC2)c1,111
COc1ccc(-n2nnnc2C2(Nc3ccc4c(c3)OCCO4)CCCC2)cc1,102
C=CCn1c(SCC(=O)NCc2ccccc2Cl)nc2cc(C(=O)NCC3CCCO3)ccc2c1=O (configuration not stated),108
O=C(NCc1c(-c2ccccc2)nc2n1CCS2)c1c(F)cccc1F,95
CN1CCN(c2cc(-c3nc(-c4cccc(F)c4)no3)c3ccccc3n2)CC1,103
CN1C(=O)C2(CCN(C(=O)NC3CCCCC3)C2)c2ccccc21 (configuration not stated),100
Cc1c(C(=O)N2CCOCC2)sc2ncnc(N3CCN(c4ccccc4)CC3)c12,107
Cc1nn(-c2nc3ccccc3n2C)c2c1C(c1ccc(Cl)cc1)CC(=O)N2 (configuration not stated),107
CCCn1c(CCc2cccc(NS(C)(=O)=O)c2)nc2ccccc21,102
CCC1C(=O)N=C(SCC(=O)NC2CCCCC2)NC1=O (configuration not stated),113
CCc1ccc(NC(=O)C2CCCN2S(=O)(=O)c2cc3c(cc2C)NC(=O)CO3)cc1 (configuration not stated),101
CCCCN(C)C(=O)Cc1c(C(=O)O)c(C)cn1CC,101
NS(=O)(=O)c1ccc(CCNC(=O)CSc2nc(Nc3ccc(F)cc3)c3ccccc3n2)cc1,109
Cc1ccccc1N1CC(O)(c2ccc(F)cc2)[N+]2=C1SCCC2 (configuration not stated),107
CCc1ccc(-c2c3c(c(-c4ccccc4)n2-c2ccccc2)C(=O)c2ccccc2C3=O)cc1,95
COc1ccc(-n2nnnc2C2(Nc3cccc(Cl)c3)CCCCC2)cc1,113
COC(=O)C1=C(C(=O)OC)SC(=C2C(=S)C(C)(C)N(C(=O)C(C)C)c3cc(C)c(C)cc32)S1,108
Cc1cc(NS(=O)(=O)c2cc(-c3noc(C(=O)N4CCCCC4)n3)ccc2C)no1,99
COc1cccc(C2C(N3C(=O)c4ccccc4C3=O)C(=O)N2c2ccc(C)c(F)c2)c1 (configuration not stated),125
CCOC(=O)CSc1nc(NCCc2ccc(OC)c(OC)c2)c2ccccc2n1,116
CC(=O)c1cc2c(cc1NC(=O)CSc1nc3[nH]ncc3c(=O)n1-c1cccc(C(F)(F)F)c1)OCO2,103
CCOC(=O)C1=C(C)NC(C)=C(C(=O)OCC)C1c1ccc(OC(=O)c2oc3ccccc3c2C)cc1,121
COCCCNC(=O)N1CCCC1c1cc(C)no1 (configuration not stated),106
CC(=O)c1ccc(NC2=NC(C)(C)Cc3cc(C)c(C)cc32)cc1,110
Brc1ccc(-c2cn3nc4c(nc3n2)CCCC4)cc1,110
COc1ccc2oc(C)c(C(=O)c3oc4ccccc4c3N)c2c1,104
Cc1ccc(S(=O)(=O)Nc2ccc3oc4c(c3c2)CC(C(C)(C)C)CC4)c(C)c1 (configuration not stated),113
c1ccc(COc2ccc(-c3nc(-c4ccc5sc6ccccc6c5c4)c(-c4ccccc4)[nH]3)cc2)cc1,109

# Next structures:
structure,GIV-Gai inh
CCOP(=O)(OCC)C(Nc1ccc(C(C)C)cc1)c1ccc([N+](=O)[O-])cc1 (configuration not stated),110
CCOC(=O)C1=C(N)n2c(s/c(=C\c3ccc(CC)cc3)c2=O)=C(C#N)C1c1ccc(CC)cc1 (configuration not stated),116
COC(=O)c1sc2nc(-c3cccs3)cc(-c3ccc(F)cc3)c2c1N,128
Cn1c(=O)c2c(nc3n(-c4ccc(Oc5ccccc5)cc4)c(-c4ccc(Br)cc4)cn23)n(C)c1=O,106
Cc1sc(-c2nc(C(C)C)cs2)cc1S(=O)(=O)N1CCN(c2ccccc2)CC1,99
Cc1ccc(-c2cc(C(F)(F)F)on2)cc1S(=O)(=O)N1CCC(C)CC1,105
CC1(C)CC(NC(=O)CCCCC(=O)NC2CC(C)(C)NC(C)(C)C2)CC(C)(C)N1,119
Cc1nc2nc(-c3ccc(Cl)cc3)cn2nc1C,106
Cc1ccccc1-n1c(=S)sc2c1nc(SCC(=O)O)n1c3ccccc3nc21,114
CCCN1CCN(C(=O)c2sc3ncnc(N4CCN(c5ccccc5F)CC4)c3c2C)CC1,101
CCOc1ccc(C2C(N3C(=O)c4c(Cl)c(Cl)c(Cl)c(Cl)c4C3=O)C(=O)N2c2cc(Cl)cc(Cl)c2)cc1 (configuration not stated),100
COc1ccc(N(CN2C(=O)C3C4c5ccccc5C(c5ccccc54)C3C2=O)C(C)=O)cc1 (configuration not stated),109
c1ccc(COc2ccc(-c3nnc4ccc5ccccc5n34)cc2)cc1,107
CC(C)(C)c1ccc(C(=O)NC2CCS(=O)(=O)C2)cc1 (configuration not stated),96
Cc1ccccc1S(=O)(=O)N1CCC2(CC1)NCCN=C2NCc1ccccc1Cl,103
O=c1[nH]c(CN2CCCC2)nc2c1C1(CCCC1)Cc1ccccc1-2,112
COCCNC(=O)c1sc2ncnc(N(C)c3ccccc3)c2c1C,103
CCN1CCN(C(=O)C2CCCN(S(=O)(=O)c3cc(-c4noc(C)n4)ccc3Cl)C2)CC1 (configuration not stated),98
COc1cccc(-c2nc(Cn3cnc(S(=O)(=O)N4CCCCC4)c3)no2)c1OC,106
CCOC(=O)c1c(NC(=O)C(C)Sc2nnc(CNC(=O)c3ccccc3F)n2C)sc2c1CCCCC2 (configuration not stated),104
CCC(C)(N)c1nnnn1-c1cccc(C)c1 (configuration not stated),111&101
CCCNS(=O)(=O)c1cc(-c2nc(C)cs2)n(CC(=O)N2CCCCC2)c1,105
CCOC(=O)c1c(C)oc2ccc(N(C(C)=O)S(=O)(=O)c3ccccc3)cc12,110
CCOc1ccc(C2C(N3C(=O)c4c(Cl)c(Cl)c(Cl)c(Cl)c4C3=O)C(=O)N2c2ccc(C)c(Cl)c2)cc1 (configuration not stated),105
Cn1c(=O)c2nc3ccc(N)cc3nc2n(C)c1=O,19*
Cc1nc(CNC(=O)[C@H]2CSCN2S(=O)(=O)c2cc(C)c(C)cc2C)cs1,100
COc1ccc(C2C3CCCC=C3C(C#N)=C(N)C2(C#N)C#N)cc1OC (configuration not stated),110
COc1cc(C2C3=C(CC(C)(C)CC3=O)NC3=C2C(=O)CC(C)(C)C3)cc(I)c1O,99
CC(C)(C)C(=O)NC1CCN(C(=O)C2CC2)C1 (configuration not stated),97
O=C1C2C3C=CC(CC3)C2C(=O)N1c1cccc(Br)c1 (configuration not stated),111
COC(=O)c1ccc(Nc2nc(-c3ccccc3)nc3ccccc23)cc1,106
COc1ccc(C(O)(C(=O)NNc2cccc(Cl)c2)c2ccc(OC)cc2)cc1,101
O=C(CCc1nc(-c2ccc(N3CCCC3)cc2)no1)NCCCN1CCOCC1,102
O=C1C2=C(Nc3ccccc3SC2c2cccs2)c2ccccc21 (configuration not stated),104
O=C(NCCC1=CCCCC1)C1CCN(c2nc3nc[nH]c(=O)c3s2)CC1,98
O=[N+]([O-])c1ccc2c(c1)Cc1cccnc1-2,106
CCOc1ccc(Br)cc1S(=O)(=O)N1CCN(c2nc(C)cc(N3CCN(C)CC3)n2)CC1,103
O=C(c1ccccc1)N1c2ccccc2Sc2ccc(Cl)cc21,108
O=C1c2ccccc2NC(c2ccc(Br)cc2)N1c1ccc2ccccc2c1 (configuration not stated),106
CNC(=O)C1CC(=O)N(C2CCCCC2)C1 (configuration not stated),100
CCOC(=O)c1cnc2c(ccc3ccccc32)c1Nc1ccccc1C,118
CC(=O)Nc1ccc(S(=O)(=O)NCCc2sc3nc(-c4ccc(C)cc4)nn3c2C)cc1,98
COCCNC(=O)NC1CCCN(c2cc(N(C)C)ncn2)C1 (configuration not stated),101
NC(=O)C1CCN(c2ncnc3c2oc2ccccc23)CC1,107
COc1ccc(OC)c(CNC(=O)c2ccc(Oc3ccnc(-c4cccc(F)c4)n3)cc2)c1,100

# Ordered by the number under GIV-Gai inh (lowest first): some entries from above.
structure,GIV-Gai inh
Cc1nc(CNC(=O)[C@H]2CSCN2S(=O)(=O)c2cc(C)c(C)cc2C)cs1,100
CC(=O)c1cc2c(cc1NC(=O)CSc1nc3[nH]ncc3c(=O)n1-c1cccc(C(F)(F)F)c1)OCO2,103
COc1ccc(CCNS(=O)(=O)c2cc(-c3cc(C)no3)cs2)cc1OC,105

# Later entries.
structure,GIV-Gai inh
COc1ccc(OC)c(/C=C2/SC(=Nc3ccc(C)cc3)NC2=O)c1,113
Cc1c(C(c2cc(Br)c(O)c(Br)c2O)c2c(C)n(C)n(-c3ccccc3)c2=O)c(=O)n(-c2ccccc2)n1C,105
CC(=O)Oc1ccc2cc(-c3nc(-c4ccc(Cl)c(Cl)c4)cs3)c(=O)oc2c1,116
O=S1(=O)N=CN(c2ccc3c(c2)OCCO3)c2ncccc21,96
O=C(O)COc1ccc2c(c1)C(=NO)c1cc(OCC(=O)O)ccc1-2,106
CCOc1ccc(-n2nc(C(=O)NCCCN3CCCCC3CC)c3ccccc3c2=O)cc1 (configuration not stated),105
CCCOc1ccc(C2CC(=O)Nc3c2ccc2ccccc32)cc1OC (configuration not stated),103
N#Cc1c2c(c(NCc3ccccc3)n3c1nc1ccccc13)CCC2,112
CCOC(=O)c1c(NC(=O)C(C)n2c(-n3nc(C)cc3C)nc(C)c(CC)c2=O)sc2c1CCC2 (configuration not stated),98
O=S(=O)(c1ccc(Cl)cc1)N1CCn2cccc2C1c1ccc(F)cc1 (configuration not stated),113
COC(=O)C1=CN(C2CC2)c2cc(N3CCCCC3)c(F)cc2S1(=O)=O,102
CCOC(=O)c1c(NC(=O)CSc2nnc(CNC(=O)c3ccco3)n2-c2cccc(Cl)c2)sc2c1CCC2,111
CCOC(=O)CS(=O)(=O)c1cc2c(cc1N)n(C)c(=O)c(=O)n2C,103

# Exported with the structure last: entries from further up.
GIV-Gai inh | molecule
107 | Cc1c(C(=O)N2CCOCC2)sc2ncnc(N3CCN(c4ccccc4)CC3)c12
106 | Brc1ccc2c(c1)c1nc3ccccc3nc1n2CCc1ccccc1
106 | CCOc1ccc(C2C(N3C(=O)c4ccccc4C3=O)C(=O)N2c2ccc(OC)c(Cl)c2)cc1 (configuration not stated)
